From PubChem BioAssay
PABP FP inh – PABP-poly(A) binding inhibition. PABP-poly(A) RNA binding, fluorescence polarization. 1% of 290,000 active. inhibition, % at 35 µM;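 active = 50% or more with normal probe brightness, or confirmed in later tests; inconclusive = above 50% with abnormal brightness, or retests that disagree; inactive = below 50% or failed in later tests; about a fifth of its hits are not listed in these tables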;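 note: calls also rest on retests at 20 µM and on dose response follow-up; controls were probe without protein and protein plus probe with vehicle; some compounds called inactive have numbers as strong as hits; many hits fall short of the cut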
Target sequence (P11940 whole entry, looked up): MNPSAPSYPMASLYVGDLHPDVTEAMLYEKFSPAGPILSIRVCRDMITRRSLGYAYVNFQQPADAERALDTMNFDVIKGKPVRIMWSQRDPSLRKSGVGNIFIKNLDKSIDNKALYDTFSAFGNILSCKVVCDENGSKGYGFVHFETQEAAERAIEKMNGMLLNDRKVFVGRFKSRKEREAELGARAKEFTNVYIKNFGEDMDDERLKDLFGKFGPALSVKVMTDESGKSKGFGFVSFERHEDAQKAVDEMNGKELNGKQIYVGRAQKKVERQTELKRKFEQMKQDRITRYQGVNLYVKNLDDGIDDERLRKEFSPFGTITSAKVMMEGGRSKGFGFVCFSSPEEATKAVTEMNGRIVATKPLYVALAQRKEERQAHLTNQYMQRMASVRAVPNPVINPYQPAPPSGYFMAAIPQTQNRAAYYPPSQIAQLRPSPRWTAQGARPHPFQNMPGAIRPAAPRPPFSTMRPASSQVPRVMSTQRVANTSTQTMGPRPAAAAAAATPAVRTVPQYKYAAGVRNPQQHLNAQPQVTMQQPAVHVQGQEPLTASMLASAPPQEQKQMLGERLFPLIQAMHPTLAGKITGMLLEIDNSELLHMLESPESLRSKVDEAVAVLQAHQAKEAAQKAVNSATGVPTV
Yeast UUG start – yeast start codon fidelity modulation. S. cerevisiae UUG-firefly luciferase reporter, luminescence/redox ratio. activity score, % at 18.7 µM. 0.13% of 350,000 active;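 active = replicate mean at a twofold rise or more, about +100% in these data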;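 note: firefly luciferase made from a UUG start codon reports start codon fidelity; reporter light over untreated wells divided by growth signal over untreated wells; some hits fall short of that in this replicate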
Env fusion inh – inhibitors of HIV Env-mediated cell fusion; HeLa-JRFL Env/CEM21 cell fusion, luciferase; inhibition, % at 12.3 µM; 1.1% of 360,000 active;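 active = mean replicate inhibition score of at least 50 and every replicate individually at or above 50; inconclusive = only one of the two criteria met; inactive = mean below 50 and not all replicates reaching 50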;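 note: 0% = plate neutral controls and 100% = maraviroc near 300 nM; one replicate is shown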
MT1-MMP act inh – inhibitors of human MT1-MMP activation; GFP/RFP ratio change, % at 20 µM; HT1080 RFP-PRO-GFP cells, GFP/RFP ratio fluorescence, overnight; percent of plate control window, DMSO zero; AID 651647; 0.061% of 360,000 active;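 active = GFP/RFP ratio change of at least 30% with cell ATP level not reduced by more than half and red fluorescence within 50% of control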; note: strong numbers were not always called active
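Assay system – RFP-PRO-GFP reporter HT1080 cells · Compound dosing – single dose of 20 µM compound, 1% DMSO final · Incubation – overnight compound exposure at 37 °C · Measure – GFP/RFP fluorescence ratio · Benchmarks – DMSO wells and RFP-L50D-GFP cells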
eIF4H FP inh – inhibitors of RNA binding by human eIF4H; eIF4H fluorescence polarization binding assay; 0.94% of 290,000 active; Q15056; inhibition, % at 35 µM;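 active = 50% or more with normal probe brightness, or confirmed in later tests; inconclusive = above 50% with abnormal brightness, or retests that disagree; inactive = below 50% or failed in later tests; about a fifth of its hits are not listed in these tables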;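 note: calls also rest on retests at 20 µM and on dose response follow-up; 0% = protein and probe with vehicle and 100% = probe without protein; strong numbers were not always called active; many hits fall short of the cut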
CSC inhib – blocks cancer stem cells; 1.1% of 300,000 active; cancer stem cell-like cells viability, luminescence; inhibition, % at 7.5 µM;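 active = mean at 75% or more and at least half the replicates too; inconclusive = mean and replicates disagree; tested in HMLE shEcad cells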;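 note: 0% = median of negative and 100% = median of positive control wells; the first replicate is given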
Rce1 inhib – inhibitors of yeast Ras-converting enzyme | calls only | yeast membranes, quenched prenylated peptide cleavage fluorescence | Q03530 | AID 2563 | 0.27% of 290,000 active;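 active = fall in fluorescence gain of 50% or more versus controls, with final raw signal at or below 3038400; inconclusive = same 50% fall but final raw signal above 3038400; inactive = fall in fluorescence gain under 50%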;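 note: plate controls were neutral control wells for no effect and wells lacking membranes for full effect; tested at 10 µM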
eIF4H FP inh retest – recorded beside eIF4H FP inh, whose call it bears; inhibition, %; compound at 20 µM; confirmation average;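 mean of two retest wells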
PABP FP inh retest – second read-out of PABP FP inh, no call of its own (marks repeat the call); inhibition, %; compound at 20 µM; confirmation repeats;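 mean of two retest wells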
MT1-MMP act inh RFP – second read-out of MT1-MMP act inh, no call of its own (marks repeat the call); RFP signal change, %; measured here: RFP expression control read;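 0 = vehicle wells; hits needed this value within 50% of zero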
The depositor's hits bear a star; i = inactive; ? = inconclusive; . = not tested or not shown; & = joins results of further samples.

SMILES	PABP FP inh	Yeast UUG start	Env fusion inh	MT1-MMP act inh	MT1-MMP act inh RFP	eIF4H FP inh	CSC inhib	Rce1 inhib	others
CC(=O)Nc1ccc(SCC(=O)Nc2cc(C(C)(C)C)nn2-c2ccccc2)cc1	4	.	-1	0	-3	-7	-5	.
Cc1ccc(C(=O)N2CCCC(N3CCN(c4ccccc4C)CC3)C2)c(=O)[nH]1 (stereo unspecified)	-3	-7	-9	2	5	-8	0	i
O=C(NCCCN1CCCCC1)c1ccc2c(c1)NC(=O)c1ccccc1S2	-6	-4	-2	2	8	-6	.	i
Cc1ccc(C)c(OCCn2cc(/C=C(/C#N)C(=O)NCC3CCCO3)c3ccccc32)c1 (stereo unspecified)	15	-6	7	-11	-12	64	-9	i	eIF4H FP inh retest=6;PABP FP inh retest=4
O=C(CN(Cc1ccco1)S(=O)(=O)c1ccccc1)N/N=C/c1cccc(O)c1	15	-16	.	2	3	-1	1	.
O=C(O)c1cc(-c2ccccc2)nc2ccccc12	-1	-12	3	1	3	-4	-11	i
O=C(COc1ccc(Br)cc1)Nc1ccccc1N1CCCC1	11	.	10	-2	-1	-4	-6	i
CCCCNC(=O)CNC(=S)N(CCCN1CCOCC1)Cc1cccs1	-8	-15	-4	0	3	-6	-1	i
Fc1ccc(C(c2nnnn2Cc2cccs2)N2CCN(C3CCCC3)CC2)cc1 (stereo unspecified)	27	-41	-59	0	0	-4	6	i
CCN(C(C)=O)c1nnc(CSc2nc3ccccc3s2)s1	-7	0	-79	6	6	-1	.	i
Cn1nc(C(=O)NCc2ccccc2)c2c1-c1ccccc1S(=O)(=O)C2	-6	.	3	2	4	2	-11	i
CCOc1ccc(C(=O)Nc2ccccc2NC(C)=O)cc1OCC	18	.	2	-1	-1	-9	-9	i
COc1ccc(OC)c(/C=C2\S/C(=N/NC(=O)c3ccc4ccccc4c3)NC2=O)c1	26	-24	14	-13	-3	5	106*	i
CC(C)C(NC(=O)c1ccccc1Br)c1ccccc1 (stereo unspecified)	6	.	-39	1	1	-10	.	i
CCOC(=O)CSc1nnc(-c2ccccc2)o1	-10	.	.	4	7	6	-7	i
COc1ccc(CN2C[C@@H](CO)O[C@@H](n3cnc4c(N(C)C)ncnc43)C2)cc1	.	-8	9	-4	2	.	.	.
Cc1ccc(-c2csc(NC(=O)C3CSC4(C)CCC(=O)N34)n2)cc1 (stereo unspecified)	.	-27	.	-4	-5	.	-2	.
CC(C)Cc1[nH]c(=O)c(C#N)c2c1COC(C)(C)C2	2	-3	.	3	9	1	-8	i
O=C(CN1CCN(c2ccccc2F)CC1)NC(=O)NCc1ccco1	10	.	1	-2	0	70	-10	.	eIF4H FP inh retest=-7;PABP FP inh retest=3
Nc1nc(SCC(=O)N2N=C3/C(=C/c4ccco4)CCCC3C2c2ccco2)n[nH]1 (stereo unspecified)	-4	-18	.	-1	-1	7	-6	i
CCOC(=O)N1CCN(C(=O)COC(=O)c2cccc(C)c2[N+](=O)[O-])CC1	.	-27	-1	-1	4	.	.	.
O=C(CCCc1ccccc1)NCCS(=O)(=O)N1CCN(c2ccccc2)CC1	.	1	11	1	-3	.	.	.
CCCCN1C(=O)C(=O)N(CC(=O)Nc2ccc(OC(F)(F)F)cc2)C1=O	.	1	-9	4	1	.	-16	.
CN(C(=O)C1CCN(S(=O)(=O)c2cccs2)CC1)C1CCCCC1	6	3	.	0	0	-5	-10	i
CN1CCN(C(=O)c2cc3sccc3n2CC(=O)c2ccccc2)CC1	-2	-15	-21	11	3	1	-11	i

More compounds follow.
SMILES	PABP FP inh	Yeast UUG start	Env fusion inh	MT1-MMP act inh	MT1-MMP act inh RFP	eIF4H FP inh	CSC inhib	Rce1 inhib	others
CCn1c(CSc2nc3ccccc3[nH]2)nc2cc(C(=O)O)ccc21	26	-13	16	11	11	14	-10	i
O=C(c1cc(Br)c(Br)s1)N1CCN(c2ccccn2)CC1	12	7	19	0	-2	68	-7	i	eIF4H FP inh retest=0;PABP FP inh retest=6
COc1ccc(NC(=O)Cc2ccc(Cl)cc2Cl)cn1	-1	-19	-20	2	3	11	2	i
CC(C(=O)O)n1nc2ccccc2n1 (stereo unspecified)	16	6	.	12	4	11	-7	i
CCCCCCCCN1[C@@H](CC(=O)OCC)c2ccc(C(F)(F)F)cc2S1(=O)=O	.	-3	22	4	-13	.	51	i
CCn1nnnc1NC(=O)c1cccc(OC)c1	-3	-13	1	2	6	-3	10	.
COCc1c(C(=O)OCC(=O)NCCN2C(=O)CSC2=O)oc2ccccc12	-11	.	.	1	2	3	0	i
Cc1c(Cl)c(=O)oc2cc(OC(C)C)ccc12	-4	-15	-53	4	3	-2	-21	i
Cc1ccc(NCc2n[nH]c(=S)n2-c2ccccc2)cc1Cl	5	.	-13	5	3	7	-11	i
Cc1cccc(OCC(=O)NCCCNC(=O)c2ccncc2)c1	2	-15	-5	-2	1	0	-9	i
COC(=O)c1cccc(NC(=O)c2cnn(C)c2)c1	.	-5	-2	2	6	.	.	i
CC(=O)Nc1cccc(NC(=O)CCCC2CCCCC2)c1	13	-5	-8	2	0	-5	10	i
CCn1ncc(Br)c1C(=O)Nc1cccc(C(C)=O)c1	2	-21	13	3	5	2	-26	i
Cc1ccc(C(=O)C2CC2)c(C)c1	.	-15	-312	1	1	.	.	.
O=C(NCCc1ccccc1)C(=S)N1CCCCC1	1	-14	-3	2	3	2	-12	i
COc1cc(NC(=O)C2CCCN(c3ncccn3)C2)cc(OC)c1 (stereo unspecified)	-9	-6	-61	4	2	-2	-12	i
CN(C(=O)COC(=O)c1cc[n+]([O-])cc1)c1ccccc1	-1	-8	-2	-1	3	-18	-5	i
Cc1ccc(NC(=O)CS(=O)CC(=O)NC23CC4CC(CC(C4)C2)C3)cc1 (stereo unspecified)	-6	1	7	4	4	-6	.	i
CN(C)CCn1cnc2c1c(=O)n(C)c(=O)n2C	3	-7	16	-5	-1	-7	-24	i
CCC(C)NC(=O)CS(=O)Cc1nc(-c2cccc(OC)c2)oc1C (stereo unspecified)	4	-9	-7	-1	1	2	-8	i
COc1ccc(NC(=O)N(C)C[C@H]2OCc3cnnn3CCCC(=O)N([C@@H](C)CO)C[C@H]2C)c(OC)c1	.	-8&0	32	1	1	.	.	.
CC(=O)c1c(C)[nH]c(C(=O)NCc2ccccc2Cl)c1C	-3	-21	-24	4	-8	-2	-7	i
CCOc1ccc(Cn2c(=O)sc3ccccc32)cc1	6	-22	18	-2	-2	-4	14	i
COc1ccc(CCNC(=O)CCCCCN2C(=O)c3ccccc3C2=O)cc1OC	-4	.	3	0	1	-3	0	i
O=C(NCc1ccco1)c1ccc(S(=O)(=O)N2CCCCCC2)cc1	.	-3	-27	-5	-3	.	.	.

Further records follow.
SMILES	PABP FP inh	Yeast UUG start	Env fusion inh	MT1-MMP act inh	MT1-MMP act inh RFP	eIF4H FP inh	CSC inhib	Rce1 inhib	others
CCCCOc1ccc(C(=O)OCC(=O)NC2CCCC2)cc1	2	0	-2	-4	-2	-3	-4	i
Cc1cc(C(=O)N2CCN(C(c3ccccc3)c3ccccc3)CC2)no1	-14	.	.	-7	-4	-7	4	i
Cc1cc(C(=O)NNC(=O)c2ccc(Cl)cc2)no1	-2	-16	9	-4	8	-7	4	i
CNC(=S)NCCc1ccccc1	2	.	3	1	4	-1	-15	i
O=C(CN1C(=O)C2CC=CCC2C1=O)Nc1nc(-c2ccc(F)c(F)c2)cs1 (stereo unspecified)	.	-15	.	6	-1	.	10	.
CC(=O)N(Cc1cc(=O)[nH]c2ccccc12)c1cccc(C)c1	-1	10	.	2	2	-1	-17	i
O=C(CNCc1ccc(Cl)cc1)Nc1ccc(C(=O)N2CCCCC2)cc1	6	-12	-12	0	-2	1	2	i
CC(Oc1ccccc1)C(=O)N1CCc2ccccc2C1 (stereo unspecified)	-6	-24	0	-1	1	-9	-7	i
CCCn1c(/C=C/c2ccccc2)nc2ccccc21	-1	-16	-160	-3	0	0	10	?
O=C(CNS(=O)(=O)c1ccccc1)OCC(=O)c1ccc(F)cc1	3	-18	-12	1	2	1	3	.
CCN(CC)S(=O)(=O)c1ccc2c(c1)c(=O)c(C(=O)NCCc1ccccc1)cn2C	1	-4	6	-4	2	-10	-2	i
Cc1cc(N)n(-c2ccc(S(=O)(=O)N3CCCC3)cc2[N+](=O)[O-])n1	-1	-20	-75	-2	0	-10	1	i
O=C(O)CCC(=O)OCc1c(-c2ccccc2)ncc2ccccc12	.	-10	-5	1	2	.	-11	.
CN(Cc1ccccc1)C(=O)c1ccc2c(c1)S(=O)(=O)N=C1CCCCCN12	.	6	22	.	.	.	-18	.
COC(=O)C1CCN(C(=O)COC(=O)c2cccc(NS(=O)(=O)c3ccccc3)c2)CC1	.	-8	7	6	-1	.	-19	i
COc1cccc(-n2nnc3c(=O)n(Cc4ccccc4F)cnc32)c1	-11	-14	-40	2	3	-2	11	i
COc1ccc(-c2ccc3c(c2)c(-c2cccs2)c(-c2cc(OC)cc(OC)c2)n3C)cc1	.	-17	?	-7	-2	.	-13	.
Cc1cc(Nc2nc(Cl)c(Cl)cc2Cl)n(-c2ccccc2)n1	24	-15	.	-12	-21	-6	99*	i
O=C(CCN1C(=O)C2C3C=CC(C3)C2C1=O)Nc1ccccc1F (stereo unspecified)	6	-17	.	-6	-3	7	12	i
O=C(Cn1c(=O)[nH]c2ccccc2c1=O)N1CCN(c2cccc(Cl)c2)CC1	58	-14	12	-4	-2	1	-8	i	eIF4H FP inh retest=-3;PABP FP inh retest=46
Cc1nn(-c2ccc(Cl)c(Cl)c2)c(=O)c2ccccc12	8	-9	.	8	5	-3	2	i
O=C(CSc1nnc(Cn2nnc3ccccc32)o1)N(Cc1ccc(F)cc1)c1ccccc1	-3	-4	.	-6	-23	-2	40	i
c1ccc(-c2nnc(-c3ccccc3)nn2)cc1	3	-22	-95	1	7	2	2	i
CN(C)N1C(N)=C(C#N)C(c2ccc(Br)cc2)C2=C1CCCC2=O (stereo unspecified)	2	-3	8	1	5	-1	-18	i
CCOc1ccccc1NC(=O)Nc1cc(S(=O)(=O)N(C)C)ccc1C	-2	.	19	2	0	-11	-7	.

(cont.)
SMILES	PABP FP inh	Yeast UUG start	Env fusion inh	MT1-MMP act inh	MT1-MMP act inh RFP	eIF4H FP inh	CSC inhib	Rce1 inhib	others
CCN(CC)C(=O)C1=C(C)N(Cc2ccc(F)cc2)C(=O)C(CC(=O)NCc2cccc3ccccc23)C1 (stereo unspecified)	.	1	-12	1	-5	.	.	.
C[C@@H]1CC[C@]2(O[C@@H](CCO)C[C@H](O)[C@H]2O)O1	1	-3	-1	2	1	8	9	i
O=[N+]([O-])c1cccc(S(=O)(=O)Nc2cccc(-c3ccc(N4CCOCC4)nn3)c2)c1	.	-7	.	2	-1	.	10	i
CCN(CC)S(=O)(=O)c1ccc(NS(=O)(=O)c2ccc(F)cc2)cc1	-4	-6	.	9	1	13	-8	i
O=c1cc(-c2ccccc2Cl)oc2cc(O)cc(O)c12	-1	1	-82	-16	-9	10	-8	i
O=C(COc1ccc(Br)cc1Br)NC(=O)NC1CCCC1	-21	.	-41	2	0	1	8	i
CN(C)CCOc1ccccc1-c1ccccc1	-3	-7	-14	-1	1	-7	-13	i
Cc1ccccc1CNc1nnnn1C	-6	-9	-3	1	2	-11	-8	i
Nc1nncn1C(=O)CCCOc1ccc(Cl)cc1Cl	6	-18	-18	2	0	-4	-1	i
Cc1ccc(NCC(=O)N/N=C/c2cccc(Oc3ccccc3)c2)cc1	-7	-13	26	-3	-2	-2	-9	i
